rRNA inh HTS: selective bacterial rRNA inhibition in E. coli. E. coli WT GFP vs humanized-ribosome RFP mutants, fluorescence, 24 h; stronger effect = lower value; DMSO median 0, no signal -100. GFP signal change (wild-type ribosome), % (concentration not given with the values). hit rate 1.6% among 350,000. AID 720706;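 active = significant combined selectivity score with lowered wild-type GFP, culture density cut under 30%, mutant RFP and density less affected; inactive = any of these conditions unmet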; also: one replicate is shown; some compounds called inactive have numbers as strong as hits
Beta2AR agonist: activates human beta-2 adrenergic receptor causing internalization | hit rate 0.43% among 340,000 | response, % (no concentration beside the values) | AID 504454 | Am2.2-beta2AR cells, FAP receptor internalization, flow cytometry; reference of the scale not given here;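 active = response above a set limit, near 3 SD of response in nonfluorescent compounds, cut at about 42% in these data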;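 also: stock transfer was 100 nL into about 11 µL; a reference agonist was the positive control; negative values mostly stem from fluorescent compounds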
UCH37 inh: human UCH37 deubiquitinating enzyme inhibition. inhibition, % (no concentration beside the values). Q9Y5K5. purified proteasome/UCH37, Ub-AMC cleavage fluorescence. hit rate 0.33% among 330,000;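 active = mean of two replicates above 20%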;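 also: 0% = compound-free wells with enzyme and 100% = wells lacking proteasome; stock transfer was 100 nL into about 20 µL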
Target sequence (Q9Y5K5 whole entry, looked up): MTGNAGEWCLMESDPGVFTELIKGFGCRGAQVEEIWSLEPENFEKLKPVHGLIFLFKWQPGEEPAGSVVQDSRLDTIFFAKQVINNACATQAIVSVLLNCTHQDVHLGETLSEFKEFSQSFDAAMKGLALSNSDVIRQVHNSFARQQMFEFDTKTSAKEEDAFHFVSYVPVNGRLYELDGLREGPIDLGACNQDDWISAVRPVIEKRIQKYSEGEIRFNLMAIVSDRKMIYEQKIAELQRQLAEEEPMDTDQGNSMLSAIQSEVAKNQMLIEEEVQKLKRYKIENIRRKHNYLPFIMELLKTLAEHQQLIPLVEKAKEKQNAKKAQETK
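system = Proteasome-associated human UCH37 deubiquitinase | amount = 0.15 nM proteasome as dispensed | medium = pH 7.4 Tris-HCl (50 mM) with ovalbumin, ATP-MgCl2, DTT | incubation = 30 min preincubation with enzyme, 25 min cleavage at room temperature | detection = AMC fluorescence 355/460 nm | read-out basis = percent inhibition | controls = no-proteasome and no-compound wells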
ALR inh: inhibitors of human sulfhydryl oxidase ALR; P55789; purified ALR, DTT oxidation, H2O2 HRP-luminol luminescence; inhibition, % (no concentration beside the values); hit rate 3.8% among 290,000; AID 485317;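 active = mean and each replicate at 75% or more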;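 also: stock transfer was 7.5 nL into about 7.5 µL; 0% = neutral wells and 100% = wells with inactivated enzyme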
Target sequence (P55789 whole entry, looked up): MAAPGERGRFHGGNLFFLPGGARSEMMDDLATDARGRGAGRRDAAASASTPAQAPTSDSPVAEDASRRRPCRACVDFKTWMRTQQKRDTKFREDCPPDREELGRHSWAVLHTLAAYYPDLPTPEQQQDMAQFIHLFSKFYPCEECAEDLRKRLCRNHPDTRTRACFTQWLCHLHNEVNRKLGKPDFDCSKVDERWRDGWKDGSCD
HNF4A DNA FP: change in binding of human HNF4 alpha to DNA; P41235; HNF4a-FITC DNA binding, fluorescence polarization, 1 h; activity change, % at 10 µM; hit rate 0.3% among 360,000; in the data active = activity change above about 30%, passing the limit was not always enough;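 also: controls were the assay level and a saturating level of protein; the project sought stronger binding though the title names inhibitors; some compounds called inactive have numbers as strong as hits; positive values seem to mean higher polarization but the record does not say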
Target sequence (P41235 whole entry, looked up): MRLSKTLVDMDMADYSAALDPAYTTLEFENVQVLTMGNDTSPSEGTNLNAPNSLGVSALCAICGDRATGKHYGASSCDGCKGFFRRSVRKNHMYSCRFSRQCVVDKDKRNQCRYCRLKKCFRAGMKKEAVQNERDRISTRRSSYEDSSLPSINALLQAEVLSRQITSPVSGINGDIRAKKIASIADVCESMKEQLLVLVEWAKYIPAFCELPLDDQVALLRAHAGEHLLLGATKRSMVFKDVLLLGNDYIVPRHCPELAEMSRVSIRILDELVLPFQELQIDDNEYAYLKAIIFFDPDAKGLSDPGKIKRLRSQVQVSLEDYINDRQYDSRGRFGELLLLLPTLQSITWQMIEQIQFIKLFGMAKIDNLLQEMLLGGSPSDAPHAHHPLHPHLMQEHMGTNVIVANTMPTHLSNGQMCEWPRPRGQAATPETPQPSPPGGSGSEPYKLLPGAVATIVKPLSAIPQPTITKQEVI
Ecoli growth: inhibitors of Escherichia coli growth | hit rate 0.21% among 330,000 | OD600 absorbance (no concentration beside the values) | AID 1053175 | OD600, 23 h; stronger effect = lower value;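 active = OD600 absorbance below the run mean of sample wells minus 3.6 SD, in any replicate, cut at about 0.56 in these data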;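 also: stock transfer was 300 nL into about 60 µL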
FGF22 binding: FGF22 (human) thermal shift binding; recombinant FGF22 thermal shift, SYPRO orange fluorescence; percent of sucrose octasulfate shift, DMSO zero; calls only at 9.99 µM; hit rate 1.5% among 340,000; AID 651658;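 active = melting point raised past a set limit in the mean and every replicate; three in four hits are not shown here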
rRNA inh HTS OD600: further read-out of rRNA inh HTS, marked with its call; OD600 change, %; measured here: OD600 growth;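 optical density of the mix in the first replicate; 0 = DMSO median and -100 = no signal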
rRNA inh HTS RFP: recorded beside rRNA inh HTS, whose call it bears; RFP signal change, %; measured here: RFP humanized mutant strains;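 first replicate; 0 = DMSO median and -100 = no signal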
Starred values were filed as active, the others as inactive; i = inactive; / = no result given; + = active, no number; & = joins results of further samples.

SMILES | rRNA inh HTS | rRNA inh HTS OD600 | rRNA inh HTS RFP | Beta2AR agonist | UCH37 inh | ALR inh | HNF4A DNA FP | Ecoli growth | FGF22 binding
COc1ccc(Cl)cc1C(=O)Nc1ccc(N(C)C(C)=O)cc1 | / | / | / | -6 | 1.9 | -2 | -0.4 | 0.78 | /
CCN(CC)C(=O)CSc1nnc(CSc2ncccn2)n1C | 7 | 10 | 4.4 | -3 | 1.4 | -7 | -6.8 | 0.7 | i
CCOc1cc(-c2n[nH]c(=S)n2Cc2ccccc2)ccc1OC(F)F | 0 | -5 | 5.7 | 9 | 1.4 | 2 | 0.4 | 0.69 | i
Cc1ccc(-c2onc(C)c2C)cc1S(=O)(=O)N1CC(C)Oc2ccccc21 (configuration not stated) | -9 | -7 | -3.3 | 10 | 2.0 | 7 | 2.4 | 0.71 | i
O=C1OCC2=C1C(c1ccc(F)cc1)CC(=O)N2c1ccccc1 (configuration not stated) | / | / | / | 6 | -0.6 | 0 | -1.9 | 0.72 | /
O=C1/C(=C/c2ccc([N+](=O)[O-])cc2)C=C(c2ccccc2)N1c1ccc(O)cc1 | 4 | 10 | 2.9 | -1 | 1.3 | 4 | -2.7 | 0.67 | i
O=C(NCCN1CCOCC1)C1CCC(=O)N1Cc1ccc(F)cc1 (configuration not stated) | / | / | / | 3 | 1.9 | -1 | 2.0 | 0.68 | /
C=CCOC(=O)C1=C[C@H](c2cn(C(C)=O)c3ccccc23)C[C@H](OCc2ccc(CO)cc2)O1 | -14 | -16 | -11 | 12 | -1.8 | / | 2.6 | / | i
CC(=O)Nc1cccc(NC(=O)CSc2ccc(-c3ccccn3)nn2)c1 | -35 | -31 | -4.1 | 0 | 1.7 | -16 | 6.0 | 0.64 | i
Cc1noc(C)c1S(=O)(=O)Nc1ccc2c(c1)C(=O)N([C@H](C)CO)C[C@H](C)[C@@H](CN(C)C(=O)NC1CCCCC1)O2 | 2&0 | 7&3 | -1.1&-1.0 | -2 | 3.3 | -4 | -1.4 | 0.72 | i
O=C(Nc1cccc2cccnc12)c1ccc2sc([C@@H]3O[C@H](CO)[C@H](O)[C@H](O)[C@H]3O)nc2c1 | 2 | 9 | 1.3 | / | / | / | 2.9 | / | i
CS(=O)(=O)NC1c2cccc3cccc(c23)C1Sc1nncn1/N=C/c1ccco1 (configuration not stated) | / | / | / | -10 | / | -11 | 0.5 | / | /
O=C(COc1ccccc1)Nc1ccccc1NS(=O)(=O)c1cccs1 | -4 | -3 | 2.3 | 1 | 4.1 | 11 | 0.3 | 0.66 | i
CC(=O)Nc1ccc(NC(=O)Cn2nc(C(=O)Nc3ccc(C)cc3)ccc2=O)cc1 | 9 | 10 | 1.9 | -1 | 2.4 | -2 | 0.0 | 0.69 | i
CS(=O)(=O)N1CCC(C(=O)Nc2ccc3c(c2)OCO3)CC1 | / | / | / | -7 | 1.4 | -7 | 0.2 | 0.64 | /
COCCN1C(=O)C(CC(=O)Nc2ccc(C(C)=O)cc2)SC1=Nc1ccccc1 (configuration not stated) | -13 | -21 | -2.0 | -7&4 | 3.5&2.3 | -9 | 0.2&-2.3 | 0.69&0.72 | i
CCOC(=O)c1c(CSCc2ccccc2)oc2ccc(O)c(CN(C)C)c12 | -26 | -29 | -5.3 | 13 | 6.4 | -10 | 2.6 | 0.62 | i
COc1ccc(CC(=O)OCC(=O)Nc2cc(Cl)ccc2C)cc1 | 7 | 4 | -2.7 | -7 | 5.5 | 0 | -0.2 | 0.69 | i
Cc1cc(C)cc(NC(=O)c2ccccc2NC(=O)CCC(=O)O)c1 | 6 | 4 | 13 | 1 | -0.6 | -1 | -1.0 | 0.65 | i
O=C(NCc1ccccc1)C(c1ccccn1)N(C(=O)c1csnn1)c1ccccc1F (configuration not stated) | -1 | -2 | 0.2 | 7 | 6.5 | -7 | -0.2 | 0.69 | i
Cc1ccc2c(c1)C(=O)CC1(CCCCCC1)O2 | 14 | 9 | -11 | 5 | -11 | 3 | -1.6 | 0.63 | i
COc1ccc(S(=O)(=O)N2CCC(n3cnc4cc(C(F)(F)F)ccc43)CC2)cc1 | / | / | / | 3 | 0.1 | / | -2.0 | 0.73 | /
CCOC(=O)Cc1csc(NC(=O)CSc2nc(-c3ccccc3)c(C#N)c(=O)[nH]2)n1 | 10 | 4 | 2.6 | 3 | 3.5 | 98* | 0.8 | 0.68 | i
CCOCC(=O)Nc1ccc(C)c(Cl)c1 | / | / | / | -1 | 3.8 | -6 | -1.8 | 0.65 | /
COCCNC(=O)C(c1c[nH]c2ccccc12)N(C(=O)c1snc(C(N)=O)c1N)c1cccc(OC)c1 (configuration not stated) | 9 | 2 | -3.9 | -1 | -14 | -10 | 3.9 | 0.63 | i
COc1ccc(CC2(CO)CCN(Cc3ccc4c(c3)CCO4)CC2)cc1 | 11 | 7 | 2.4 | 16 | -0.4 | -5 | 1.1 | 0.67 | i
CS(=O)(=O)Nc1ccccc1C(=O)N1CCOCC1 | / | / | / | 4 | 6.6 | -4 | 4.0 | 0.71 | /
CCC(=O)N[C@H]1CC[C@@H](CCn2cc(C3CC3)nn2)O[C@@H]1CO | 1&12 | 6&0 | -0.2&1.3 | / | / | / | 0.8 | / | i
Cc1nc(-c2ccccc2)cc(=O)[nH]1 | / | / | / | -1 | 1.0 | / | -2.1 | 0.71 | /
COCCN1CSC(=S)N(Cc2ccco2)C1 | / | / | / | -4 | 1.2 | 38 | -0.6 | 0.57 | /
CS(=O)(=O)Nc1ccccc1C(=O)Nc1cc(Cl)cc(Cl)c1 | / | / | / | 14 | -87 | 30 | -1.8 | 0.72 | /
COc1ccc(CC(=O)Nc2ccc(S(=O)(=O)Nc3cc(OC)nc(OC)n3)cc2)cc1 | -5 | 19 | 0.5 | 9 | -0.3 | 44 | -3.3 | 0.67 | /
COC(=O)c1[nH]c2ccc(C)cc2c1NC(=O)CN1CCN(c2ccccc2)CC1 | / | / | / | 16 | -12 | 44 | -0.3 | 0.68 | /
CCN(CC(=O)Nc1ccccc1OC)C(=O)c1ccc(NS(=O)(=O)c2ccc(C(C)=O)cc2)cc1 | -4 | -4 | -1.4 | -2 | / | -4 | 0.8 | / | i
Cc1cccc(OCc2nnc(SCC(=O)N(c3ccccc3)C3CCS(=O)(=O)C3)o2)c1 (configuration not stated) | 0 | -6 | -0.6 | 3 | -1.0 | / | 1.4 | 0.69 | i
O=C1NC[C@H](CCCCN2C[C@H](Cc3ccc(O)cc3)N(Cc3ccccc3)C(=O)C2=O)N(CC2CCCCC2)C1=O | 8 | -15 | -1.0 | / | / | / | 2.8 | / | i

Ordered by count of non-hydrogen atoms (lowest first): part of the list above.
SMILES | rRNA inh HTS | rRNA inh HTS OD600 | rRNA inh HTS RFP | Beta2AR agonist | UCH37 inh | ALR inh | HNF4A DNA FP | Ecoli growth | FGF22 binding
COCCN1CSC(=S)N(Cc2ccco2)C1 | / | / | / | -4 | 1.2 | 38 | -0.6 | 0.57 | /
CS(=O)(=O)Nc1ccccc1C(=O)N1CCOCC1 | / | / | / | 4 | 6.6 | -4 | 4.0 | 0.71 | /
CS(=O)(=O)Nc1ccccc1C(=O)Nc1cc(Cl)cc(Cl)c1 | / | / | / | 14 | -87 | 30 | -1.8 | 0.72 | /
CCC(=O)N[C@H]1CC[C@@H](CCn2cc(C3CC3)nn2)O[C@@H]1CO | 1&12 | 6&0 | -0.2&1.3 | / | / | / | 0.8 | / | i
COC(=O)c1[nH]c2ccc(C)cc2c1NC(=O)CN1CCN(c2ccccc2)CC1 | / | / | / | 16 | -12 | 44 | -0.3 | 0.68 | /
Cc1cccc(OCc2nnc(SCC(=O)N(c3ccccc3)C3CCS(=O)(=O)C3)o2)c1 (configuration not stated) | 0 | -6 | -0.6 | 3 | -1.0 | / | 1.4 | 0.69 | i
COCCNC(=O)C(c1c[nH]c2ccccc12)N(C(=O)c1snc(C(N)=O)c1N)c1cccc(OC)c1 (configuration not stated) | 9 | 2 | -3.9 | -1 | -14 | -10 | 3.9 | 0.63 | i
O=C1NC[C@H](CCCCN2C[C@H](Cc3ccc(O)cc3)N(Cc3ccccc3)C(=O)C2=O)N(CC2CCCCC2)C1=O | 8 | -15 | -1.0 | / | / | / | 2.8 | / | i

Remaining list, next part.
SMILES | rRNA inh HTS | rRNA inh HTS OD600 | rRNA inh HTS RFP | Beta2AR agonist | UCH37 inh | ALR inh | HNF4A DNA FP | Ecoli growth | FGF22 binding
O=C(NCc1ccccn1)C1CCN(S(=O)(=O)N2CCC3(CC2)OCCO3)CC1 | / | / | / | 4 | 0.1 | -16 | 1.2 | 0.66 | /
CCN1CCN(C(=S)Nc2ccc3nc(N4CCN(C)CC4)cc(C)c3c2)CC1 | 0 | -10 | -5.2 | 0 | 3.9 | -2 | 0.0 | 0.72 | i
COc1ccc(-c2ccc(C(=O)NCCN3CCOCC3)c3occc23)c(C)c1 | -6 | -11 | -1.5 | / | / | / | -3.9 | / | i
CCOC(=O)Nc1ccc2c(c1)ncn2C1CCCCC1 | / | / | / | -6 | 0.5 | 84* | 1.0 | 0.65 | /
CN(CC(=O)Nc1ccccc1C(F)(F)F)C(=O)CSCc1ccccc1 | 2 | 5 | -0.4 | -4 | 0.8 | -9 | -3.1 | 0.67 | i
Cc1noc(NS(=O)(=O)c2ccc(NC(=O)c3cccc(S(=O)(=O)N(C)c4ccccc4)c3)cc2)c1C | -9 | -8 | 0.7 | -1 | 4.7 | / | -2.1 | 0.7 | +
CC1CCN(S(=O)(=O)c2c[nH]c(=O)[nH]c2=O)CC1 | 10 | 12 | 2.3 | 6 | 2.9 | -7 | 1.9 | 0.67 | i
CC(C)C(NS(=O)(=O)c1cccc2nsnc12)C(=O)Nc1nc2ccc(Cl)cc2s1 (configuration not stated) | -13 | -33 | -1.1 | 6 | 2.9 | / | -1.5 | 0.73 | i
Cc1ccc(SCC(=O)Nc2oc(C)c3c(C)n[nH]c(=O)c23)cc1C | -2 | 4 | -2.7 | 3 | -1.7 | 59 | 4.0 | 0.7 | i
CN(C)[C@H]1CCN([C@@H]2CS(=O)(=O)N[C@H]2COCc2ccccc2)C1 | 9 | 11 | 1.3 | / | / | / | -0.4 | / | i
CC1(C)N=C(N)N=C(N)N1CCCCc1ccccc1 | 7 | 6 | -5.1 | -3 | / | / | -0.9 | / | /
CSc1ccc(CN2CCC(N3CCC(C(=O)NC4CC4)CC3)CC2)cc1 | 10 | 14 | 1.0 | / | / | / | 1.4 | / | i
CCN(CC)CCCNC(=O)c1ccc(S(=O)(=O)Nc2ccc(C)c(C)c2)cc1 | 1 | -1 | 0.9 | 3 | 1.5 | / | 0.5 | 0.69 | i
Cc1ccccc1C(=O)Nc1ccc(Cl)cn1 | / | / | / | -4 | 1.4 | 1 | 1.7 | 0.67 | /
C[C@H](NC(=O)c1nc[nH]c1C(=O)NCCCCCNC(=O)OC(C)(C)C)c1ccccc1 | -29 | -59 | 2.9 | 0 | -0.5 | -1 | 1.3 | / | i
C=CC[C@@H](CC(=O)N[C@@H](CO)Cc1ccccc1)C(=O)N[C@H](COC(=O)[C@@H](CC=C)CC(=O)OC(C)(C)C)Cc1c[nH]c2ccccc12 | 16 | 4 | 4.2 | 9 | 0.8 | -3 | 0.8 | 0.72 | i
COc1ccc(-c2nc(N)n(C(=O)c3ccco3)n2)cc1 | -6 | -6 | -0.5 | -3 | -48 | -49 | -2.4 | 0.7 | i
CCOCCCNC(=O)Cn1cnc2c(cnn2-c2ccc(C)c(C)c2)c1=O | 3 | 1 | -3.3 | -11 | 1.6 | -25 | -4.7 | 0.7 | i
Cc1ccc(C(=O)NNC(=O)c2ccncc2)cc1[N+](=O)[O-] | 5 | 9 | -6.8 | 1 | / | 37 | 0.5 | / | i

Source: PubChem BioAssay

A portion of the library; count on the stated rates, not on these rows.
